XiGFP reactiv: reactivates the inactive X chromosome in mouse fibroblasts; XiGFP mouse fibroblasts, % GFP-positive cells imaging, 3 d; cells co-treated with 5-aza-dC sensitizer; scaled so ellipticine positive control = 100%; activation, % at 7.58 µM; 360,000 compounds, 0.055% hits;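 active = mean normalized replicate activation at least 10% and every replicate at or above 10%; inconclusive = only one of the two criteria met; inactive = mean below 10% and not all replicates reach 10%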;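 note: 0% = median of on-plate neutral control wells and 100% = ellipticine 6 µM median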
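Schedule: 3 d treatment, 15 min room-temperature fixation; system: 68-5-11 XiGFP fibroblast line; buffer or medium: DMEM plus 5-aza-dC sensitizer; control set: ellipticine 6 µM positive control; compound: one concentration, pinned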
DENV2 CPE rescue: protects cells from dengue virus 2 cytopathic effect | AID 651640 | CPE inhibition, % at 9.99 µM | 350,000 compounds, 1.7% hits | DENV2-infected cells, cytopathic effect rescue, plate reader; in the data active = CPE inhibition above about 20%, passing the limit was not always enough; inconclusive = no clear call, values can overlap the other calls; tested in BHK-21 cells;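 note: 0% = median of neutral control wells and 100% = median of positive control wells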
PAX8 inh HTS: lowers PAX8-driven luciferase in RMG-I cells. RMG-I TPO-luciferase reporter, SteadyGlo, 24 h. inhibition, % at 12.6 µM. 360,000 compounds, 1.2% hits;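 active = mean replicate inhibition at least 60% with every replicate also reaching 60%; inconclusive = only one of the two criteria is met; inactive = mean below 60% and not all replicates reaching 60%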;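 note: luciferase light reporting Pax8 driven TPO promoter activity; plate controls were median of neutral control wells for no effect and mitoxantrone controls for full effect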
EWS-Fli inh: blocks EWS/Fli oncoprotein-driven transcription; inhibition, % at 12.6 µM; A673 NR0B1-luciferase reporter, viability-normalised; 350,000 compounds, 0.67% hits;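 active = mean inhibition of at least 50% after viability correction, with every replicate also passing that limit; inconclusive = mean reaches 50% but only one of two replicates passes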;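 note: firefly luciferase signal divided by Alamar Blue viability fluorescence both relative to DMSO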
ERp5 block: inhibitors of human ERp5; Q15084; ERp5 insulin aggregation, absorbance 650 nm, 90 min; inhibition, % at 9.99 µM; 350,000 compounds, 0.05% hits; AID 651711;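 active = mean replicate inhibition above about 25%, with every replicate also reaching it, limit read from the data, passing the limit was not always enough; inconclusive = only one of those two criteria met; inactive = neither criterion met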
Target sequence (Q15084 whole entry, looked up): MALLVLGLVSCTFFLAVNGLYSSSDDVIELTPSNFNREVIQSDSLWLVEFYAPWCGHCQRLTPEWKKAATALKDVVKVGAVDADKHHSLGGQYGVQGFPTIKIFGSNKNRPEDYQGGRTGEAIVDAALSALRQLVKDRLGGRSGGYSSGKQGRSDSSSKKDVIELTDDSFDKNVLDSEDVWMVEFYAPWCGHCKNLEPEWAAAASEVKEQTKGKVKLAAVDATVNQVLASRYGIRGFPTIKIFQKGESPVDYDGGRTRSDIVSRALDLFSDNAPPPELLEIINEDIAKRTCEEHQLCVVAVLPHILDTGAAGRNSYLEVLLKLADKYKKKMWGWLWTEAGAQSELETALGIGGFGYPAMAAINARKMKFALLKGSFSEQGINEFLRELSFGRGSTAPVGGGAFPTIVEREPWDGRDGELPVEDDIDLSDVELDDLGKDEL
CFTR F508del cor: correctors of CFTR F508del function in bronchial epithelial cells; CFBE cells, YFP halide quenching; stimulated with forskolin plus potentiator P3; % fluorescence drop versus neutral controls; activity (quench increase), % at 7.58 µM; 350,000 compounds, 0.36% hits; AID 720511;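 active = mean added fluorescence quench of at least 8% versus neutral control, with both replicates also reaching 8%; inconclusive = only one of the mean or replicate conditions met; inactive = mean below 8% and not both replicates reaching 8%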;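 note: cells transiently co-express mutant CFTR-F508del with the halide-sensitive YFP; corrector assay measuring rescue of mutant channel to the surface after 24 h compound exposure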
INS-1E GSIS act: GLuc luminescence reporter in INS-1E cells, primary screen for activators of glucose-dependent secretion of insulin. INS-1E GLuc reporter insulin secretion, 2-3 h. activation, % at 16.6 µM. 370,000 compounds, 0.61% hits. AID 743287;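 active = lowest replicate activation of at least 40%, so every replicate reaches that level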;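 note: 0% = median of neutral control wells and 100% = median of IBMX positive control wells; some compounds called inactive have numbers as strong as hits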
The depositor's hits bear a star; ? = inconclusive; nt = no result given. Some of the compounds tested; the hit share may differ from the screen's.

The first 2 records (preview)
no.	structure	ERp5 block	EWS-Fli inh	PAX8 inh HTS	CFTR F508del cor
1	CN1CCN(C(=O)c2ccc3c(c2)NC(=O)/C(=C/c2ccccc2)S3)CC1	-1	nt	54	1.2
2	Cc1ccc(C(=O)N/N=C/c2ccoc2)cc1C	17	nt	-77	-0.4

no.	INS-1E GSIS act	XiGFP reactiv	DENV2 CPE rescue
1	3	0.1	1
2	13	0.4	0

This part in full, repeating the preview:
no.	structure	ERp5 block	EWS-Fli inh	PAX8 inh HTS	CFTR F508del cor
1	CN1CCN(C(=O)c2ccc3c(c2)NC(=O)/C(=C/c2ccccc2)S3)CC1	-1	nt	54	1.2
2	Cc1ccc(C(=O)N/N=C/c2ccoc2)cc1C	17	nt	-77	-0.4
3	O=C1C=C(NCc2ccccc2)CCC1	-1	0	74*	nt
4	C[C@@H]1CCCCO[C@@H](CN(C)C(=O)Nc2ccc(F)cc2)[C@@H](C)CN([C@H](C)CO)C(=O)c2cc(NS(=O)(=O)c3ccc(Cl)cc3)ccc2O1	-1	-5	9	-1.6
5	CC1CCN(CCCNc2cc(NCCO)c([N+](=O)[O-])c3nonc23)CC1	0	1	-1	-0.7
6	O=C(O)CN1C(=O)SC(Nc2ccc(Cl)cc2)C1=O (configuration not stated)	nt	nt	nt	nt
7	O=C(CSc1ncnc2c1cnn2-c1ccc(F)cc1)NCc1ccc2c(c1)OCO2	nt	nt	nt	nt
8	C[C@@H]1CCCCO[C@H](CN(C)C(=O)Nc2ccc(F)cc2)[C@H](C)CN([C@H](C)CO)C(=O)c2cc(NS(=O)(=O)c3ccc(Cl)cc3)ccc2O1	nt	3	15	-0.5
9	COCCOc1cc(N)c(Cl)cc1Cl	-1	1	-14	-0.8
10	CN(Cc1ccco1)C(=O)Cn1nc(-c2ccc(Cl)cc2)ccc1=O	-2	-1	-28	0.7
11	O=S(=O)(NCc1ccc2c(c1)OCO2)c1ccccc1F	0	9	-1	2.9
12	CCOC(=O)c1cnc(-n2nc(C)cc2C)[nH]c1=O	1	7	-6	3.8
13	Cn1c(SCc2ccccc2)nnc1-c1ccc(O)cc1	0	-42	-83	-0.6
14	CCCCCC(=O)Nc1ccc(C(=O)COC(=O)c2ccccn2)cc1	16	-5	-6	2.4
15	O=C(NCC1CCCO1)C1c2ccccc2Oc2ccccc21 (configuration not stated)	3	-4	-13	-0.2

no.	INS-1E GSIS act	XiGFP reactiv	DENV2 CPE rescue
1	3	0.1	1
2	13	0.4	0
3	18	0.0	-10
4	0	0.2	-7
5	5	0.0	0
6	5	nt	nt
7	3	nt	nt
8	-1	0.4	14
9	4	0.0	nt
10	-29	0.0	nt
11	-9	0.1	-3
12	-9	-0.1	-1
13	26	0.0	5
14	-1	0.1	-5
15	-10	0.1	2

no.	structure	ERp5 block	EWS-Fli inh	PAX8 inh HTS	CFTR F508del cor
16	COc1ccc(CNC(=O)C[C@@H]2CC[C@H]3[C@@H](COc4ccc(NC(=O)C5CC5)cc4C(=O)N3C)O2)cc1	-7	2	-4	5.5
17	COc1cc(C)c(NC(=S)Nc2cccc(Cl)c2)cc1OC	nt	nt	11	nt
18	CC(CCc1ccco1)NC(=O)c1cc2c(-c3ccccc3F)nn(C)c2s1 (configuration not stated)	2	14	36	-1.2
19	CCC(=O)c1ccccc1OCCN1CCN(Cc2ccccc2)CC1	3	-15	1	-3.6
20	COc1cc2c(cc1OC)C1(CCCC1)CNC2C (configuration not stated)	4	1	nt	-2.0
21	C[C@@H]1CCCCO[C@H](CN(C)C(=O)Nc2ccc(F)cc2)[C@@H](C)CN([C@@H](C)CO)C(=O)c2cc(NS(=O)(=O)c3ccc(Cl)cc3)ccc2O1	3	7	83*	-1.4
22	Cc1cc(C)c2c(CC(=O)O)coc2c1	6	nt	nt	nt
23	CN(C)c1ccc2c(c1)[C@@H]1C[C@@H](CC(=O)NCc3cc(F)ccc3F)O[C@@H](CO)[C@@H]1O2	-1	23	-86	-2.2
24	CCOC(=O)C1=NN(c2ccc(OC)cc2)C2C(=O)N(c3ccccc3OC)C(=O)C12 (configuration not stated)	-7	2	-14	0.8
25	O=C(/C=C/c1cccc([N+](=O)[O-])c1)N1CCN(Cc2ccccc2)CC1	2	-16	4	-2.1
26	CCOCCCNC(=S)NCCNc1nc2ccc(C)cc2cc1C#N	4	-8	5	0.8
27	CC(C)CCNC(=O)[C@H](Cc1ccccc1)N1Cc2ccccc2C1=O	6	5	9	-1.6
28	COc1ccc(-c2c(NCCc3ccccc3)c(=O)c2=O)cc1	2	-1	0	-0.3
29	CC(Nc1ccc2ccccc2c1)C(=O)N/N=C/c1ccncc1 (configuration not stated)	-3	-13	26	-1.7
30	NC(=O)C(c1ccc(Cl)cc1)c1ccc(Sc2ccc(Cl)cc2)nn1 (configuration not stated)	nt	nt	nt	nt

no.	INS-1E GSIS act	XiGFP reactiv	DENV2 CPE rescue
16	4	0.2	?
17	7	-0.2	nt
18	nt	0.0	-8
19	15	0.0	-6
20	10	nt	nt
21	-9	0.1	7
22	7	nt	nt
23	-11	0.1	-2
24	-3	0.0	4
25	-7	0.0	-1
26	3	0.1	0
27	nt	0.4	-5
28	12	0.2	?
29	-6	0.1	-2
30	-35	nt	nt

Complete entries as entered above. Values in the order: ERp5 block, EWS-Fli inh, PAX8 inh HTS, CFTR F508del cor, INS-1E GSIS act, XiGFP reactiv, DENV2 CPE rescue
Entry for `CCOCCCNC(=S)NCCNc1nc2ccc(C)cc2cc1C#N` : 4, -8, 5, 0.8, 3, 0.1, 0
Entry for `COc1ccc(-c2c(NCCc3ccccc3)c(=O)c2=O)cc1` : 2, -1, 0, -0.3, 12, 0.2, ?
Entry for `CC(C)CCNC(=O)[C@H](Cc1ccccc1)N1Cc2ccccc2C1=O` : 6, 5, 9, -1.6, nt, 0.4, -5

The listing continues.
no.	structure	ERp5 block	EWS-Fli inh	PAX8 inh HTS	CFTR F508del cor
31	COc1ccc(C(=O)N/N=C/C(=O)c2ccccc2)cc1	-4	nt	-267	2.7
32	CC(/C=C/c1cccc([N+](=O)[O-])c1)=N\NC(=O)c1ccncc1	-3	6	3	nt
33	CCOc1cc(/C=C2\CCCc3c2nc2ccccc2c3C(=O)O)ccc1OC	-2	-15	-14	4.7
34	O=c1c([N+](=O)[O-])c(O)c2ccccc2n1Cc1ccccc1	1	-11	-7	6.2
35	C[C@@H]1CN([C@H](C)CO)C(=O)c2cc(NC(=O)C3CCCCC3)ccc2O[C@@H](C)CCCCO[C@@H]1CN(C)C(=O)NC1CCCCC1	7	9	0	1.0
36	O=C(COC(=O)c1ccc([N+](=O)[O-])o1)Nc1ccc(F)cc1	6	7	0	-0.6
37	COc1ccc(-c2cc(-c3nnc(-c4ccncc4)o3)c3ccccc3n2)cc1	nt	nt	-7	nt

no.	INS-1E GSIS act	XiGFP reactiv	DENV2 CPE rescue
31	24	0.2	-2
32	nt	-0.6	-4
33	13	0.0	0
34	-22	0.2	0
35	-24	0.3	-1
36	-22	-0.2	-2
37	5	-0.1	nt

Rewritten as labelled records: 2 of the compounds above.
34. O=c1c([N+](=O)[O-])c(O)c2ccccc2n1Cc1ccccc1
  ERp5 block = 1 | EWS-Fli inh = -11 | PAX8 inh HTS = -7 | CFTR F508del cor = 6.2 | INS-1E GSIS act = -22 | XiGFP reactiv = 0.2 | DENV2 CPE rescue = 0

35. C[C@@H]1CN([C@H](C)CO)C(=O)c2cc(NC(=O)C3CCCCC3)ccc2O[C@@H](C)CCCCO[C@@H]1CN(C)C(=O)NC1CCCCC1
  ERp5 block = 7 | EWS-Fli inh = 9 | PAX8 inh HTS = 0 | CFTR F508del cor = 1.0 | INS-1E GSIS act = -24 | XiGFP reactiv = 0.3 | DENV2 CPE rescue = -1

Source: PubChem (Broad Institute)
